# Screening data as filed in PubChem.
# BasE inh – inhibitors of Acinetobacter baumannii siderophore enzyme BasE | purified BasE, fluorescence polarization binding displacement | inhibition, % (concentration not given with the values) | 0.1% of 84,000 active;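 active means both replicates above 25% with normal brightness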;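 further: 0% = negative plate control signal and 100% = positive plate control signal; stock transfer was 100 nL into about 30 µL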
# KSHV LANA nucl – LANA-nucleosome interaction inhibition. z-score (no concentration beside the values). AID 720717. FITC-LANA1-23 / chicken nucleosome fluorescence polarization; stronger effect = lower value. 0.3% of 51,000 active;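 active means both repeat wells score below -2 in polarization z-score versus plate sample wells, excluding overly bright wells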;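 further: 100 nL library stock added to about 30 µL; numbers are from one replicate; some results filed as inactive read as strong as hits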
#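 Test system: purified chicken nucleosomes with FITC-labelled LANA N-terminal peptide (1-23); Input: 240 nM purified chicken nucleosomes (480 nM peptide binding sites), final; Medium: TEN-BT buffer, pH 7.5; Timing: 10–45 min, room temperature; Technique: fluorescence polarization, 480 nm excitation, 535 nm parallel and perpendicular emission; Replication: duplicates.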
# * hit, by the source's call; . = no result given; & = joins results of further samples. Not all compounds are listed. The share of hits here may be higher or lower than overall.
SMILES	BasE inh	KSHV LANA nucl
O=c1c2c3c(sc2nc(SCc2ccccc2)n1Cc1ccco1)CCC3	1.2	-0.678
CSc1nnc(-c2ccc(C(C)(C)C)cc2)n1Cc1ccco1	0.1	.
O=C(Nc1ncnc2sccc12)C1CCCCC1	-1.1	0.367
Cc1cccc(C(=O)N/N=C/c2ccc[nH]2)c1	-6.4	1.4
COC(=O)Cc1nc(NC(=O)C2CCC2C(=O)O)sc1C (stereo not given)	1.6	.
Cc1ccc(C(=O)NC2CC3CCCC(C2)N3C(=O)NC2CCCCC2)cc1 (stereo not given)	0.3	0.613
COC(=O)c1ccc(CNCC(=O)Nc2ccc(C(=O)OC)cc2)cc1	-7.6	.
CC(OC(=O)c1ccc2ncsc2c1)C(=O)Nc1ccc(S(N)(=O)=O)cc1 (stereo not given)	2.0	.
Cc1nn(-c2ccccc2)c(-c2ccccc2)c1C(=O)O	-1.7	-0.202
CC1(C)CN(c2ccc(C(=O)c3ccccc3)cc2)C1=O	.	0.471
Cc1ccc(Cl)cc1N1CCN(CCNS(=O)(=O)c2ccc3c(c2)C(C)(C)C(=O)N3C)CC1	-1.4	.
CN(c1ccccc1C(=O)N1CCN(c2cccc(Cl)c2)CC1)S(C)(=O)=O	0.6	0.589
COC(=O)Cc1ccccn1	1.1	.
CCc1ccc(CCC(=O)Nc2sc3c(c2C(=O)OC)CCCC3)o1	4.3	-0.331
Cc1cccc(C(=O)NCCCN2CCCC2=O)c1	-1.7	.

# The results go on:
SMILES	BasE inh	KSHV LANA nucl
CC(C)CN(CC(C)C)S(=O)(=O)N1CCC(C(=O)NC2CC2)CC1	1.3	-1.39
O=C(CN1CCN(Cc2ccccc2)CC1)N1CCOCC1	-1.2	-0.163
CCN=c1scc(-c2ccccc2)n1/N=C/c1ccccn1	1.6	.
O=C(CC1(O)C(=O)N(Cc2ccccc2Cl)c2ccccc21)c1ccccn1 (stereo not given)	-1.8	0.358
COc1cccc(NC(=O)Nc2cc(C(F)(F)F)ccc2N2CCCC2)c1	.	0.228
CCOC(=O)c1c(N)sc2c1CC(C)(C)OC2	-4.1	-0.0235
N#CC(C#N)=C(N)/C(C#N)=C\c1ccc(-c2ccccc2)o1	0.9	-0.109
COc1cccc(CN(C)S(=O)(=O)c2ccc3c(c2)OCCO3)c1	1.1	.
O=C(CSc1ccc2nnc(-c3cccnc3)n2n1)NCc1ccccc1	-0.5	0.051
N#Cc1c2n(c(=O)[nH]c1=O)CCC2	1.9	.
CC(NCc1ccc2c(c1)OCO2)C(=O)N1CCc2ccccc21 (stereo not given)	-0.4	.
O=C(Cn1c(=O)n(CC2CCC(C(=O)NCc3ccccc3)CC2)c(=O)c2ccccc21)NCc1ccco1 (stereo not given)	1.3	0.266
N#CCc1nc(-c2cccc(Cl)c2)n[nH]1	4.2	-1.28
CCOC(=O)c1cc2oc(C)cc2n1CCCN1C(=O)c2ccccc2C1=O	0.8	-0.768
CCOc1ncccc1C(=O)N1CCCC1c1nc2ccccc2s1 (stereo not given)	-0.1	.

# Later entries
SMILES	BasE inh	KSHV LANA nucl
COc1ccc(-c2ccc[nH]2)cc1	1.9	3.54
O=C1COc2ccc(C(=O)COC(=O)c3cccnc3)cc2N1	-2.4	.
CC1Cc2ccccc2N1C(=O)COc1cccc(C#N)c1 (stereo not given)	-2.0	.
CC(C)OP(=O)(c1ccccc1)c1ccccc1	1.0	0.176
COC(=O)c1c(C)oc2ccc(N(C(C)=O)S(=O)(=O)c3ccc(OC)cc3)cc12	0.9	.
O=C(Nc1nc2ccccc2c(=O)s1)c1ccccc1	-0.2	.
CCCN1CNC(=S)N(c2cc(C)ccc2C)C1	0.4	.
O=C(c1cccc(N2C(=O)C3CC=CCC3C2=O)c1)N1CCc2ccccc2C1 (stereo not given)	0.1	-0.61
O=c1c2c3n(nnc-2nn1-c1ccccc1)CCC3	-0.6	.
C/C(=N/O)c1ccc(N)cc1	2.9	-0.334
CCOC(=O)N1CCN(CC2=CCC3CC2C3(C)C)CC1 (stereo not given)	-3.3	2.15
CN(C(=O)CSc1ccc(F)cc1)C1(C#N)CCCCC1	-0.9	.
CCOC(=O)C1=C(C)NC(SCc2cc(=O)[nH][nH]2)=C(C#N)C1c1cccs1 (stereo not given)	-1.4	0.303
N#Cc1ccc(-c2ccncn2)cc1	2.7	0.471
CN(C)/C=C/C=C1\N=C(c2ccccc2)OC1=O	-11.2	.

# Continued:
SMILES	BasE inh	KSHV LANA nucl
CCCc1nnc(NC(=O)CSc2nc(C)cc(C)n2)s1	-0.3	-0.053
S=C1NCCN1Cc1ccccc1	0.1	.
Cc1cc(NC(=O)C2CC=CCC2C(=O)O)no1 (stereo not given)	2.0	-0.265
CS(=O)(=O)c1ccc(Cl)c(NC(=O)c2cncn2-c2ccc(F)cc2)c1	1.3	.
CC(Sc1nnnn1C)C(=O)Nc1ccccc1 (stereo not given)	0.5	.
O=C(O)c1ccc(Br)cn1	0.3	-0.799
c1ccc(CN2CCC(NCc3nnc(-c4ccccc4)o3)CC2)cc1	1.9	.
O=C(COC(=O)Cc1ccc(S(=O)(=O)N2CCOCC2)s1)Nc1ccccc1	-3.6	.
C=CCn1c(=O)/c(=C2/Sc3ccccc3N2CC)s/c1=C1/C(=O)NN=C1C	-5.0	0.219
CCCN(Cc1cc2cccc(C)c2[nH]c1=O)S(=O)(=O)c1ccccc1	1.3	-0.748
CC1CCN(C(=S)NCCc2ccccc2)CC1	-0.1	.
c1ccc(CN2CCN(c3nc(N4CCOCC4)c4ccccc4n3)CC2)cc1	-1.1	-1.28
CN(C)C(=O)N1CCN(S(=O)(=O)c2ccccc2)CC1	-2.5	3.07
COc1ccccc1N=C=S	0.3	.
CCN(CC)C(=O)C(Cc1ccccc1)N1C(=O)C2C3C=CC(C3)C2C1=O (stereo not given)	1.9	-0.447

# Following part
SMILES	BasE inh	KSHV LANA nucl
CCc1ccccc1-n1nnnc1SC1OC(=O)c2ccccc21 (stereo not given)	0.5	0.0175
Cc1ccc(Sc2c(C)[nH]n(-c3ccccc3)c2=O)cc1	1.9	-0.923
O=C(c1cccc(Cl)c1)N1CCn2c1nc1ccccc12	1.1	-0.951
Cc1ccc(C2CC(c3cccs3)=NN2C(=O)CSc2nnc(CNC(=O)c3cccs3)n2C)cc1 (stereo not given)	-3.2	-0.709
CN1/C(=C2/SC(=O)N(Cc3ccccc3)C2=O)Sc2ccccc21	3.4	-0.762
CC1CCc2c(sc(NC(=O)C3c4ccccc4Oc4ccccc43)c2C(N)=O)C1 (stereo not given)	0.2	.
O=C1/C(=C\c2ccco2)SC(=S)N1CCC(=O)N(CCO)c1ccccc1	-1.5	2.48
CCn1c(SCC(=O)N=Nc2c(O)[nH]c3ccccc23)nc2ccccc21	-2.0	-0.799
COC(=O)c1cc(CSc2nc3ccccc3[nH]2)oc1C	-0.8	.
C/C=N/N(C)c1cc(=O)n(C)c(=O)[nH]1	0.0	0.624
CCn1c(CCc2ccccc2)n[nH]c1=S	1.8	-0.462
Cc1ccc(S(=O)(=O)N(C)CC(=O)OCc2nnc(-c3ccccc3)o2)cc1	-3.5	.
O=C(Nc1cccnc1)/C(N=Nc1cccnc1)=C(\O)c1ccccc1	32.0*	.
Cc1sc(NC(=O)c2ccc(Br)s2)c(C(N)=O)c1C	0.7	-1.35
CC1(C)C2CCC(C2)C1C/C=N/NC(N)=O (stereo not given)	1.0	-0.21

# (further entries)
SMILES	BasE inh	KSHV LANA nucl
O=C(O)CC1CCCCN1 (stereo not given)	-1.7	1.23
CN(C)S(=O)(=O)N1CCN(S(=O)(=O)N2CCCCCC2)CC1	-0.5	0.117
NS(=O)(=O)c1cc2c(cc1Cl)NCNS2(=O)=O	-4.1&2.7	0.158&1.36&-0.154
CCC(CC)NC(=O)COc1cccc2c1OC(C)(C)C2	2.8	.
C/C(N)=C(/C#N)C(=O)CSc1nnc(Cc2cccc3ccccc23)n1N	2.2	.
CC(C)N(Cc1nc(-c2ccc(Cl)cc2)no1)C(=O)Cc1ccccc1	-1.1	0.752
Cc1cccc(N2CCN(CC(O)c3ccc4cc[nH]c4c3)CC2)c1C (stereo not given)	3.8	-0.0895
Cc1cc(N2CCN(C)CC2)ccc1NC(=O)C1CC(=O)N(Cc2ccccc2Cl)C1 (stereo not given)	-0.4	.
Cc1cc(C)c2c(-n3cccc3)nn(CC(=O)N3CCCCC3)c2n1	-1.2	3.09
OCCn1c(CN2CCCCC2)nc2ccccc21	-1.0	-0.593
CCOc1nc2cnccc2n(CC(=O)NCc2ccco2)c1=O	0.9	-1.06
COc1ccc(OCCSCC(=O)N2CCN(c3ccc(OC)cc3)CC2)cc1	1.0	.
Cc1cc(-c2ccc(S(=O)(=O)N3CCC(C)CC3)s2)n[nH]1	-2.6	-0.234
O=C(Nc1ncccn1)C1CCCCC1	-1.6	0.041
CN(C)S(=O)(=O)c1ccc(C(=O)CSc2nnc(C3COc4ccccc4O3)n2C)cc1 (stereo not given)	2.0	.

# Record cards, as listed above. Values in the order: BasE inh, KSHV LANA nucl
# Shown for Cc1cc(-c2ccc(S(=O)(=O)N3CCC(C)CC3)s2)n[nH]1 → -2.6, -0.234
# Shown for CCC(CC)NC(=O)COc1cccc2c1OC(C)(C)C2 → 2.8, .
# Shown for Cc1cccc(N2CCN(CC(O)c3ccc4cc[nH]c4c3)CC2)c1C (stereo not given) → 3.8, -0.0895

# (cont.)
SMILES	BasE inh	KSHV LANA nucl
O=S(=O)(c1ccc(F)cc1)N(CCO)CC(O)Cn1c2ccccc2c2ccccc21 (stereo not given)	1.3	0.211
CC(c1cccs1)N(Cc1ccco1)C(=S)Nc1cc(F)cc(F)c1 (stereo not given)	-0.8	1.16
CCOC(=O)N1CCC(NC(=O)Cc2cn(C)c3ccccc23)CC1	3.8	-0.0655
O=S(=O)(c1cccc2cccnc12)N1CCCC1c1ccc(F)cc1 (stereo not given)	.	-0.45
CC(C)NCC(O)COc1cccc2ccccc12 (stereo not given)	-1.0&-4.0&-1.4&0.0	-0.358&0.61&-0.267&-0.325&-0.205&-0.546
CC(=O)N1CCC(N(C(=O)Nc2ccc(C)c(C)c2)C(C)C)CC1	3.9	-0.778
COCCNC(=O)CN1C(=O)COc2ccccc21	-0.5	-0.153
NCC1OC(OC2C(N)CC(N)C(OC3OC(CO)C(O)C(N)C3O)C2O)C(N)CC1O (stereo not given)	1.7	0.611
CCOC(=O)N1CCC(N2Cc3cccc(C(=O)NCCCN4CCCC4=O)c3C2=O)CC1	0.9	-0.99
O/N=C/c1ccn(-c2ccc(Br)cc2)c1	.	-0.398
O=C(/C=C/N1CCOCC1)c1ccc(Cl)cc1	-1.1	.
COc1ccc(-n2ncc3c2ncn2nc(COc4ccccc4C)nc32)cc1	1.0	-1.63
CCOC(=O)C1CCCN(C(=O)c2ccc(CS(=O)(=O)Cc3ccccc3C)o2)C1 (stereo not given)	-1.9	1.31
CCN(CC)S(=O)(=O)c1ccc(-c2csc(=Nc3ccc(C)cc3)n2C)cc1	0.5	.
O=C(COC(=O)/C=C/c1ccccc1)NC1CC1	-2.2	.

# (list continues)
SMILES	BasE inh	KSHV LANA nucl
O=C(C1CCN(S(=O)(=O)c2ccc3nc(-c4ccccc4)[nH]c3c2)CC1)N1CCCCC1	-5.4	0.257
O=S(N=C(c1ccccc1)c1ccccc1)c1ccccc1 (stereo not given)	-1.0	0.081
O=C(CCc1ccc(S(=O)(=O)N2CCCCCC2)cc1)NC1=NCCS1	-0.5	.
Cc1ccc(C)c(S(=O)(=O)N/N=C/c2ccc3c(c2)OCO3)c1	2.1	.
Cc1[nH]c2ccccc2c1/C=N\NC(=O)Cn1nnc(-c2ccccc2)n1	-2.2	0.536
CC(C(=O)Nc1ccc(S(N)(=O)=O)cc1)N(C)Cc1ccccc1F (stereo not given)	3.0	.
O=C1CCC(C(=O)Nc2sc3c(c2-c2nc4ccccc4[nH]2)CCCC3)=NN1	-1.7	.
CC1=CC(C)C2C(=O)N(Cc3ccc[n+](C)c3)C(=O)C2C1 (stereo not given)	-1.3	0.221
Cc1ccc2nc(-c3cccc4ccccc34)[nH]c2c1	-0.2	.
CNC(=O)COC(=O)c1cccn1C	5.6	.
O=C(NCC1CCCO1)N1CCOCC1 (stereo not given)	0.8	0.0585
COc1cc(/C=N/NC(=O)c2ccoc2C)ccc1OCC(=O)N1C(C)CCCC1C (stereo not given)	1.8	.
CC(=O)Oc1c(C)cc(C)c2ccc(C)nc12	3.1	0.179
CN1C(=O)/C(=C\c2ccc(Cl)cc2Cl)OC1=S	-1.8	.
CC(=O)N1N=C(c2cc3ccccc3o2)OC1c1c(C)[nH]c(=O)[nH]c1=O (stereo not given)	-0.5	-1.34
Cc1c2cnn(CC(=O)N3CCCC3)c(=O)c2c(C)n1Cc1ccccc1	-3.2	1.2
O=C1/C(=C\c2ccccc2)N=C(c2ccccc2)N1c1ccccc1	2.2	.

# Rewritten as labelled records: 4 of the compounds above
O=C(C1CCN(S(=O)(=O)c2ccc3nc(-c4ccccc4)[nH]c3c2)CC1)N1CCCCC1
  BasE inh = -5.4
  KSHV LANA nucl = 0.257

Cc1ccc2nc(-c3cccc4ccccc34)[nH]c2c1
  BasE inh = -0.2
  KSHV LANA nucl = .

O=C1CCC(C(=O)Nc2sc3c(c2-c2nc4ccccc4[nH]2)CCCC3)=NN1
  BasE inh = -1.7
  KSHV LANA nucl = .

CNC(=O)COC(=O)c1cccn1C
  BasE inh = 5.6
  KSHV LANA nucl = .
